Source: PubChem BioAssay
HTT promoter inh – Primary qHTS for Identification of Small Molecule Inhibitors of Huntingtin Promoter Activity; HEK293 HTT promoter firefly luciferase reporter (activity 0% = vehicle and -100% = no light), 24 h; Potency, µM (series often up to 57.5 µM), inactives show at the top dose activity change, negative = inhibition, most hits filed as inhibitors; 48,000 tested, 0.93% active; active = well fitted inhibition curve with a large enough effect; inconclusive = small, poorly fitted or top-dose-only effect; inactive = no such curve, though single readings can be large or run the other way; also: nearly all actives have a fitted effect of over 50% in size
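Quantitative HTS used concentration series of up to 57.5 uM final on HEK293 luciferase reporter cells, 24 h at 37 degrees C. Readout was Dual-Glo firefly luminescence.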
PMP22 txn prim – Cell-based coincidence reporter assay to measure PMP22 gene transcription in S16 Pmp22-F2sN cells - Primary screen | S16 Pmp22-F2sN Schwann cells (luciferase reporters placed in the Pmp22 gene), FLuc/NLuc coincidence luminescence, 24 h | 43,000 tested, 2% active | Potency, µM (series often up to 57.5 µM), without a hit: top-dose activity change, negative = inhibition, hits mostly inhibitors; active = clear falling dose curves in both reporters; inconclusive = both reporters move, but less clearly or upward; inactive = either reporter flat; the % is the NLuc reporter signal; also: % is scaled to controls: 0 for no effect and ±100 for the full control effect; some results filed as inactive show a strong effect at the top dose
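S16(c9) Schwann cells with FLuc/NLuc coincidence reporter in the Pmp22 3' UTR; compounds pin-transferred, 24 h at 37C. Dual-luciferase read: FLuc first, then NLuc after Stop&Glo, each 10 min at room temperature.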
Numbers without * were called inactive; ? = inconclusive; nt = no result given; [ ] = another dose, or the depositor's remark. Potency is read from the fitted curve at half-maximal effect.

SMILES	HTT promoter inh	PMP22 txn prim
CCCCCCCCCCCCCCCCN	-2%	nt
Cc1noc(-c2ccc(-c3noc(-c4cccc(Cl)c4)n3)cc2)n1	-7%	-1%
Cc1ccc(C(=O)Nc2c(C)nc3ccccn3c2=O)cc1	58%[activator]	-7%
CCCc1nn2c(=O)cc(COc3ccc(/C=C(\C#N)C(=O)Nc4ccccc4)cc3)nc2s1	-10%	-12%
COc1ccc(-c2nc(SCC(=O)NC3CCCC3)c(-c3ccc(F)cc3)[nH]2)cc1OC	-13%	0%
O=C(c1ccc2c(c1)N(Cc1ccccc1)C(=O)c1ccccc1S2(=O)=O)N1CCCCCC1	7%	-18%
CCOC(=O)c1ccccc1NC(=O)c1sc2nc3n(c(=O)c2c1C)CCCC3	4%	-1%
O=C(Nc1ccccc1C(F)(F)F)c1ccc2oc(=O)c(S(=O)(=O)c3ccc(F)cc3)cc2c1	?	-24%
N#CC[C@H](C1CCCC1)n1cc(-c2ncnc3[nH]ccc23)cn1	6%	nt
Cc1ccc2nc(COc3ccccc3NC(=O)COc3ccccc3Cl)cc(=O)n2c1	-10%	-5%
Cc1cccn2c(=O)c(C(=O)NC(C)c3ccccc3)c(O)nc12 (stereo unspecified)	?	?
COc1ccc(CNc2oc(-c3ccc(COc4ccc(Cl)cc4)o3)nc2C#N)cc1	22µM*	-24%
COc1ccccc1NC(=O)NCCN1CCN(c2cccc(Cl)c2)CC1	-11%	-47%
CCn1c(=O)cc(SCC(=O)Nc2ccc(C)c(F)c2)c2ccccc21	?	-8%
Cc1ccc(-c2nnc(Nc3cccc(C(F)(F)F)c3)c3ccccc23)cc1S(=O)(=O)N1CCOCC1	?	-10%

An excerpt of these results, with values under each structure:
Sequence of screens: HTT promoter inh	PMP22 txn prim
CCCc1nn2c(=O)cc(COc3ccc(/C=C(\C#N)C(=O)Nc4ccccc4)cc3)nc2s1
    -10%	-12%
COc1ccc(-c2nc(SCC(=O)NC3CCCC3)c(-c3ccc(F)cc3)[nH]2)cc1OC
    -13%	0%
O=C(c1ccc2c(c1)N(Cc1ccccc1)C(=O)c1ccccc1S2(=O)=O)N1CCCCCC1
    7%	-18%

Entries above marked active in HTT promoter inh.
Molecule	HTT promoter inh
COc1ccc(CNc2oc(-c3ccc(COc4ccc(Cl)cc4)o3)nc2C#N)cc1	22µM*

(next part)
SMILES	HTT promoter inh	PMP22 txn prim
NC(=O)c1ccc(-c2nc(-c3ccc4c(c3)OCCO4)c(-c3ccccn3)[nH]2)cc1	-1%	nt
CCC(=O)N1CCc2cc(Br)cc(S(=O)(=O)CCC(=O)NCc3cccc(OC)c3)c21	-15%	-28%
Cc1ccc(Cn2c(=O)n(Cc3nc(-c4ccccc4)no3)c(=O)c3cc4c(cc32)OCO4)cc1	-5%	7%
CC(=O)c1ccc(N2C(=O)N(Cc3cc(C)ccc3C)c3ccccc3S2(=O)=O)cc1	?	-9%
O=C(NCCc1ccccc1)c1cc2sccc2n1Cc1ccc(F)cc1	-9%	?
CCN(CC)CCNC(=O)CN1C(=O)CSc2ccc(S(=O)(=O)N3CCOCC3)cc21	-2%	-4%
COc1ccc(OC)c(NC(=O)CS(=O)(=O)Cc2nc(-c3ccc(C)cc3)oc2C)c1	-18%	5%
CSCCC(NS(=O)(=O)c1ccc2c(c1)oc(=O)n2C)C(=O)N1CCN(c2cc(C)ccc2C)CC1 (stereo unspecified)	-12%	-6%
CCc1ccc(NC(=O)CN(c2ccc(C)cc2)S(=O)(=O)c2c(C)nn(C)c2C)cc1	-19%	?
COc1ccc(CNC(=O)C(=O)NCC(c2cccs2)S(=O)(=O)c2ccc(C)cc2)cc1 (stereo unspecified)	-15%	-23%
O=S(=O)(c1ccc2nc(NCc3ccccc3Cl)ccc2c1)N1CCCCC1	?	-33%
O=C(Cn1c(-c2cccs2)cc2ccccc21)NCCCN1CCN(c2ccccc2F)CC1	?	?
COc1cc(NC(=O)c2ccc(-c3nc(COc4ccccc4)c(C)o3)cc2)cc(OC)c1	14µM*	-36%
O=C(NCc1ccccc1)C1CCC(CNS(=O)(=O)c2ccc(Br)s2)CC1 (stereo unspecified)	-4%	0%
O=C(CN1C(=O)C2(SCC(=O)N2c2ccc(Cl)cc2)c2ccccc21)NCCc1ccccc1 (stereo unspecified)	-21%	-15%
CCN(CC)C(=O)Cn1cc(SCC(=O)Nc2cc(OC)ccc2OC)c2ccccc21	-27%	-25%
COC(=O)Cc1c(C)c2ccc3c(c2oc1=O)CN(Cc1ccc(Cl)cc1)CO3	-27%	-8%
Cc1ccc(NC(=O)CSc2nnc(-c3ccc([N+](=O)[O-])cc3)o2)c(C)c1	7%	-17%
CCN(c1ccccc1C)S(=O)(=O)c1nnc(NC(=O)c2ccco2)s1	-19%	-13%
COc1ccccc1Nc1sc(C(=O)c2ccc3c(c2)OCO3)c(N)c1S(=O)(=O)c1ccccc1	-22%	-11%
Cc1ccccc1CN1CCCN(CC(=O)Nc2ccc3c(c2)OCCO3)S1(=O)=O	-6%	-10%
COc1cc([N+](=O)[O-])ccc1NC(=O)c1nc2ccccc2n(C)c1=O	8%	-1%
CCOc1ccc(-c2cccc(NS(=O)(=O)c3ccc(Cl)s3)c2)nn1	-8%	20%
CCCc1nn2c(C)c(-c3ccccc3)nc2s1	77%[activator]	?
Cc1ccc(-c2nc(NC(=O)CSc3nc(C)nc4sc5c(c34)CCCC5)ns2)cc1	-9%	-25%
C=CCC(CC=C)(CNC(=O)C(=O)Nc1ccc(Br)cc1)c1ccc(OC)c(OC)c1	?	?
Nc1ncn([C@@H]2O[C@H](CO)[C@@H](O)[C@@H]2O)c(=O)n1	?	nt
COc1ccc(CN2C(=O)c3ccccc3C2C(=O)NC2CCCCCC2)c(OC)c1 (stereo unspecified)	0%	-16%
O=C(Nc1c(C(=O)N2CCN(c3ccccc3F)CC2)oc2ccccc12)c1ccco1	?	-15%
CCCN(CCC)CCCNC(=O)C1CCCN(S(=O)(=O)c2cccc3nsnc23)C1 (stereo unspecified)	0%	-1%

Structures listed so far containing a CF3 group:
SMILES	HTT promoter inh	PMP22 txn prim
O=C(Nc1ccccc1C(F)(F)F)c1ccc2oc(=O)c(S(=O)(=O)c3ccc(F)cc3)cc2c1	?	-24%
Cc1ccc(-c2nnc(Nc3cccc(C(F)(F)F)c3)c3ccccc23)cc1S(=O)(=O)N1CCOCC1	?	-10%

Some of these compounds in order of SMILES length, rising.
SMILES	HTT promoter inh	PMP22 txn prim
COc1cc(NC(=O)c2ccc(-c3nc(COc4ccccc4)c(C)o3)cc2)cc(OC)c1	14µM*	-36%
NC(=O)c1ccc(-c2nc(-c3ccc4c(c3)OCCO4)c(-c3ccccn3)[nH]2)cc1	-1%	nt
O=C(CN1C(=O)C2(SCC(=O)N2c2ccc(Cl)cc2)c2ccccc21)NCCc1ccccc1 (stereo unspecified)	-21%	-15%
Cc1ccc(-c2nnc(Nc3cccc(C(F)(F)F)c3)c3ccccc23)cc1S(=O)(=O)N1CCOCC1	?	-10%

Further structures
SMILES	HTT promoter inh	PMP22 txn prim
CNc1nc(Oc2ccc(=O)[nH]n2)nc(N2CCOCC2)n1	-3%	4%
O=C(NCCCc1ccccc1)c1nn(-c2ccccc2F)nc1CO	?	-9%
CCc1ccc(NC(=O)C2CCN(c3ccc(Sc4ccc(C)cc4)nn3)CC2)cc1	-3%	?
COc1ccc(CNC(=O)c2c(O)nc3c(C)cccn3c2=O)cc1	-16%	9%
Cc1ccc(Cl)cc1N1CCN(C(=O)c2cc3c(=O)n(C)c4ccccc4c3s2)CC1	-8%	-15%
O=C(NCCc1ccccc1)c1ccc(CS(=O)Cc2ccc(Cl)cc2)o1 (stereo unspecified)	-1%	-27%
Cc1nn(-c2ccccc2)c2sc(C(=O)Nc3ccc(Br)cc3)cc12	-7%	?
CCN1CCN(C(c2ccc(F)cc2)c2sc3nc(-c4ccco4)nn3c2O)CC1 (stereo unspecified)	-4%	2%
CCCC(=O)Nc1ccc2nc(SCC(=O)N3CCOCC3)sc2c1	3%	0%
CCc1ccc(OCC(=O)Nc2ccc(Cl)c(-c3nc4ncccc4o3)c2)cc1	36%[activator]	?
CCOc1ccc(C(=O)Nc2ccc(C(=O)OCc3cc(=O)n4nc(CC)sc4n3)cc2)cc1	-19%	-10%
O=C(Cc1ccccc1)N(Cc1cccnc1)c1nc2c(F)cc(F)cc2s1	?	-29%
O=C(Nc1cc(-c2nc3cc(Cl)ccc3o2)ccc1Cl)c1cc2ccccc2o1	8%	-11%
CCCCOc1cccc(C(=O)N(Cc2ccc(Br)o2)C2CCS(=O)(=O)C2)c1 (stereo unspecified)	?	0%
Cc1cc(C)c(Nc2nn3c(=O)c4cc5c(cc4nc3s2)OCO5)c(C)c1	-10%	9%
Cc1ccc(Cn2c(=O)n(-c3ccccc3)c(=O)c3ccc(C(=O)NCc4ccco4)cc32)cc1	-26%	?
CCC(Cn1nnc2ccccc2c1=O)NC(=O)Nc1cccc(C)c1C (stereo unspecified)	-4%	-19%
COc1ccc(CCNC(=O)C2CCN(c3nc4ccccc4nc3C(F)(F)F)CC2)cc1OC	-3%	-28%
COc1ccc(-c2nnc(SCC(=O)NCCC(C)C)nc2-c2ccc(OC)c(OC)c2)cc1OC	-22%	?
CCOc1ccc(NC(=O)c2oc3ccccc3c2NC(=O)Cc2cccc(C)c2)cc1	-18%	-14%
Cn1c(SCC(=O)N2CCCc3ccccc32)ncc(C(=O)Nc2ccc(Cl)cc2)c1=O	-10%	-46%
O=C(CN1N=C(c2ccc(Cl)cc2)CCC1=O)NCc1ccc(F)cc1	-5%	2%
CCCCCC(=O)N(c1ccc(OCC)cc1)S(=O)(=O)c1ccc2c(c1)n(C)c(=O)n2C	12%	-66%
COc1cc(Cl)c(C)cc1NC(c1ccccc1)c1nnc(-c2ccccc2Cl)o1 (stereo unspecified)	-6%	-13%
Cc1ccc(NC(=O)c2c(C)oc3c2C2=NCCN2C=N3)cc1F	-24%	?
Cc1c(C(=O)Nc2cccc(C(F)(F)F)c2)sc2nc3n(c(=O)c12)CCC3	-17%	-71%
COc1ccc2c(c1)c1c(c(=O)n(-c3ccc(OC)c(OC)c3)c(=O)n1Cc1ccc(F)cc1)n2C	3%	-2%
Cc1ccc(C(=O)n2nc(C)c(S(=O)(=O)N3CCOCC3)c2C)cc1C	-19%	-9%
CCOC(=O)c1cc(-c2ccc(F)cc2)n(CC(=O)NC2CCCCC2)c1C	?	0%
CCc1cccc(C)c1NC(=O)Cn1c(=O)n(-c2cccc(C)c2)c(=O)c2c1c1cc(C)ccc1n2C	10%	-28%
Cc1ccc2c(c1)N(C(=O)CCC(=O)NCc1ccccc1F)CC(C)O2 (stereo unspecified)	-21%	-9%
O=C(CCSc1nc(-c2ccco2)cc(C(F)(F)F)n1)Nc1cccc(O)c1	-27%	-1%
CCCCN(CC)CCNC(=O)c1cc2c(-c3ccc(Cl)cc3)nn(C)c2s1	-4%	?
CCOC(=O)C1CCCN(c2nc3c(S(=O)(=O)c4ccc(CC)cc4)nnn3c3ccsc23)C1 (stereo unspecified)	-2%	-14%
CCN(CC)c1ccc(CN(C(=O)c2cc(=O)c3ccccc3o2)C2CCS(=O)(=O)C2)cc1 (stereo unspecified)	-25%	-5%
Cc1ccc2sc(N3CCN(C(=O)CCS(=O)(=O)c4ccc(F)cc4)CC3)nc2c1C	?	?
O=c1cc(CN2CCN(S(=O)(=O)c3ccc(Cl)cc3)CC2)nc2sc(-c3ccccc3F)nn12	-20%	?
COc1ccc(CNC(=O)Cn2c(=O)ccc3cc(S(=O)(=O)N4CCCC4)ccc32)cc1	-14%	-9%
CCOC(=O)c1ccc(NC(=O)Nc2cccc(OCc3cc(=O)n4ccc(C)cc4n3)c2)cc1	-2%	-2%
CCc1cccc(NC(=O)C(Cc2ccccc2)NS(=O)(=O)c2ccc3c(c2)oc(=O)n3C)c1 (stereo unspecified)	-26%	-9%
CC1=C(C(=O)Nc2ccccc2)C(C(C)C)n2nc(SCc3ccccc3C)nc2N1 (stereo unspecified)	7%	-12%
COc1ccc(OCCCCn2c(-c3ccc(Cl)cc3)nc3ccccc3c2=O)cc1	3%	4%
COc1ccc(NC(=O)c2sc3nc4c(c(-c5ccc(OC)cc5)c3c2N)C(=O)CC(C)(C)C4)cc1	-14%	-12%
COc1ccc2oc(-c3ccc(C)c(NC(=O)c4sc5ccccc5c4Cl)c3)nc2c1	-2%	-4%
CCOc1ccc(C2N3CC4(C(C)C)CN2CC(C(C)C)(C3)C4=O)cc1OC (stereo unspecified)	-13%	4%
CCN(C(=O)CSc1nc2ccccc2c2nc(CCn3c(C)nc4ccccc43)nn12)c1cccc(C)c1	-9%	-35%
O=C(Cc1ccc(NC(=O)N2CCCCc3ccccc32)cc1)Nc1ccccc1Br	?	?
Cc1ccc(C)c(N2CCN(C(=O)c3cn(CC(C)C)c(=O)c4c3c3ccccc3n4C)CC2)c1	-12%	?
COc1ccc(-n2c(-c3ccccc3F)nc3c(cnn3-c3ccc(C)cc3)c2=O)cc1	?	?
CC(=O)N1CCCC1c1nc2ccccc2n1Cc1cccc(C)c1 (stereo unspecified)	-6%	35%
COc1ccc(-c2nc(SCC(=O)Nc3ccc4c(c3)OCO4)c(-c3ccccc3)[nH]2)cc1	?	?
COc1ccccc1C(=O)Nc1cccc(C(=O)OCc2cc(=O)n3c4c(sc3n2)CCCC4)c1	?	-18%
Cc1cccc(C(=O)NC(=O)Nc2ccc(-c3cc(C(F)(F)F)nn3-c3ccccc3)cc2)c1	-20%	-11%

The order is random, and some 2.7% of all compounds hit somewhere here.
